MT1-MMP promoter: inhibitors of MT1-MMP promoter transcription, cell-based, luciferase reporter, luminescence (AID 618); MT1-MMP promoter luciferase reporter cells, luminescence; calls from a first round at 10 µM; hits with a dose series show EC50 in µM; 87,000 compounds, 0.62% hits;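 active means over half of the reporter light lost at 10 µM or EC50 under 50 µM; inactive means the rest and hits that failed the dose series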;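 further: actives suppress MT1-MMP promoter-driven transcription so potencies describe inhibitors; HT1080 fibrosarcoma cells; overnight exposure; toxic or luciferase-blocking compounds were not removed from the actives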
WNV NS2B-NS3 inh: inhibitors of WNV NS2B-NS3 protease, primary screen, biochemical, fluorogenic substrate | z-score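 (tested at a level between 10 and 100 µM)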 | 65,000 compounds, 0.18% hits | AID 577, 2007 | fluorogenic substrate Ex360/Em465; hits give low values | Genome polyprotein (West Nile virus), P06935;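 active means z-score at -3 or under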;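 further: score is relative to mean and spread of the compound wells of a plate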
Target sequence (P06935 1371-1501 limits assumed): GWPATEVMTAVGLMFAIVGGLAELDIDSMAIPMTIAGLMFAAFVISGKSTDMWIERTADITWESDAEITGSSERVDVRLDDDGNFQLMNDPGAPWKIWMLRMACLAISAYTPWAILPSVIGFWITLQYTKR
Target sequence (P06935 1502-1679 limits assumed): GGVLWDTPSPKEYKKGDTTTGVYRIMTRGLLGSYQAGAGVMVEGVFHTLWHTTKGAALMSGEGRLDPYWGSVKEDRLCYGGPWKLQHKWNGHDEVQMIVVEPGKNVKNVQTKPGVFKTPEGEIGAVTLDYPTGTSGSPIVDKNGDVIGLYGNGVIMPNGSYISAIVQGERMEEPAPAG
Hsc70 ATP site: Hsc70 inhibitors, probe displacement, primary screen, biochemical, fluorescence polarization (AID 568). Heat shock cognate 71 kDa protein (Homo sapiens). Hsc70 fluorescence polarization, probe displacement; higher % means a stronger effect; strong numbers were not always called active. displacement, % at 20 µM; hits with a dose series show IC50 in µM. 83,000 tested, under 10 active;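 active means displacement above 50% without optical interference and an IC50 on retest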;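 further: ATPase domain with a fluorescein-tagged ATP probe; 0% = vehicle and 100% = excess ADP; read after one hour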
* hit, by the source's call; i = inactive; / = not tested or not shown; + = active, no number. This is a subset; the hit share may differ from the screen's.

entry | mol | MT1-MMP promoter | WNV NS2B-NS3 inh | Hsc70 ATP site
1 | COC(=O)c1c(NC(=O)c2ccco2)sc(C(=O)N2CCCC2)c1C | i | 0.43 | 5.5%
2 | CC1(C)OC(=O)CC1C(=O)NCc1ccccc1 (stereo not given) | i | -1.1 | 2.3%
3 | CC(C)CC(=O)Nc1ccc(F)c(Cl)c1 | i | -1.1 | 5.8%
4 | O=C(O)CCS(=O)(=O)c1cccc2cccnc12 | i | 3.2 | 3.1%
5 | Cc1cc2ccccc2nc1SCC(=O)N1CCCC1 | i | -0.56 | 1.0%
6 | CC(C)C(OC(=O)c1cc2sccc2n1C)C(=O)NCC1CCCO1 (stereo not given) | i | -0.62 | -0.6%
7 | COc1ccc(CN=CC2=C(O)CC(C)(C)CC2=O)cc1 | i | -1.2 | 1.4%
8 | COc1cc(OC)cc(C(=O)n2cnnc2N)c1 | i | / | -2.2%
9 | COc1ccc(NC(=O)CSc2nnc(Cn3c(=O)sc4ccccc43)n2C)cc1OC | i | -0.49 | 6.0%
10 | Cc1cc(C)nc(NC2=NCCN2C(=O)NC2CCCCC2)n1 | i | 1.1 | -0.1%
11 | COc1ccc2nc(NC(=O)Cn3cnc4c(=O)n(C)c(=O)n(C)c43)sc2c1 | i | -1.2 | -1.8%
12 | c1ccc(CSc2n[nH]c(-c3ccco3)n2)cc1 | i | / | 2.4%
13 | Cc1ccc(NC(=O)CN2C(=O)NC(Cc3ccccc3)C2=O)cc1 (stereo not given) | i | -0.01 | -3.1%
14 | O=C(Cn1cnc2ccccc2c1=O)NCCC(=O)N1CCN(c2ccccc2)CC1 | i | -1.1 | 1.5%
15 | CC(C)(C)NC(=O)C(c1cccs1)N(CC1CCCO1)C(=O)Cn1nnc(-c2cccs2)n1 (stereo not given) | i | -0.4 | 1.3%
16 | CC(C)c1nc2oc3c(N4CCNCC4)ncnc3c2c2c1CCC2 | i | 0.17 | 8.1%
17 | COc1c(F)c(F)c(-c2csc(N)n2)c(F)c1F | i | -0.62 | -1.7%
18 | CCc1ccc(OCC(=O)N2CCN=C2c2ccccc2)cc1 | i | / | 3.6%
19 | CN1CCN(C(=O)c2ccccc2NC(=O)CCN2C(=O)c3ccccc3C2=O)CC1 | i | 1.2 | -2.7%
20 | O=C(c1ccccc1)c1ccc(OC(=O)N2CCCC2)cc1 | i | -1.8 | 1.3%

entry | mol | MT1-MMP promoter | WNV NS2B-NS3 inh | Hsc70 ATP site
21 | COc1ccc(OC)c(CNC(=O)CCN2C(=O)COc3ccccc32)c1 | i | 0.22 | -2.5%
22 | COc1ccc(Cl)cc1S(=O)(=O)NCc1cccs1 | i | -0.62 | 8.9%
23 | COCCNC(=O)NC1(C(F)(F)F)Oc2ccc(Cl)cc2O1 (stereo not given) | i | 0.33 | 2.0%
24 | CCOC(=O)c1ccccc1Oc1c(F)c(F)nc(NCCO)c1F | i | / | 3.5%
25 | O=C(c1ccccc1F)N1CCN(S(=O)(=O)c2ccc(S(=O)(=O)N3CCCCC3)cc2)CC1 | i | -0.97 | -4.2%
26 | CCOc1ccc(C(=O)Nc2c3c(nn2-c2cccc(Cl)c2)CS(=O)C3)cc1 (stereo not given) | i | 0.38 | 6.0%
27 | CCOC(=O)c1c(P(=O)(N2CCOCC2)N2CCOCC2)noc1N | i | -0.91 | -2.0%
28 | Cc1nnc(Sc2nc(Sc3nnc(C)s3)nc(N3CCN(C)CC3)n2)s1 | + | 1.5 | 6.4%
29 | CCCCCc1nc2ccccc2c(=O)n1NC(=O)c1c(O)c2cccc3c2n(c1=O)CCC3 | i | / | 0.7%
30 | Cc1ccc(-c2noc(C3CCCN(S(=O)(=O)c4ccc5ccccc5c4)C3)n2)o1 (stereo not given) | i | / | -8.6%
31 | O=c1[nH]c(=O)n(Cc2ccco2)c2c1C(C(F)(F)F)(C(F)(F)F)N=C(c1ccco1)N2 | i | -0.55 | -5.1%
32 | O=C(NCCN1CCOCC1)C1CCC(CNS(=O)(=O)c2ccc(Cl)cc2)CC1 (stereo not given) | i | / | -23%
33 | O=C1CC(C(=O)Nc2ncccn2)C(c2ccccc2)O1 (stereo not given) | i | -0.55 | 1.1%
34 | CCOC(=O)c1c(NC(=O)CSc2nnc(-c3cccnc3)o2)sc(C)c1C | i | 0.2 | 7.0%
35 | CN(C)S(=O)(=O)c1cccc(C(=O)NCCc2ccccc2)c1 | i | 1.5 | 6.1%
36 | CCOc1ccc(CCNS(=O)(=O)c2cnc[nH]2)cc1OCC | i | 1.4 | -6.3%
37 | Cc1oc(-c2ccccc2F)nc1CN1CCC(C(=O)NCc2cccs2)CC1 | i | -0.41 | -14%
38 | O=S1(=O)CC(O)C(N2CCC(c3ccccc3)CC2)C1 (stereo not given) | i | -0.7 | -3.0%
39 | O=C(COC(=O)c1ccc(S(=O)(=O)NCc2ccco2)cc1)Nc1ccccc1OC(F)F | i | 0.4 | -1.7%
40 | CCOc1ccccc1N/C=C(\C#N)c1nc2ccccc2n1C | i | / | 5.5%

entry | mol | MT1-MMP promoter | WNV NS2B-NS3 inh | Hsc70 ATP site
41 | CCN(CC)S(=O)(=O)c1ccc2c(c1)nc(SCc1nc3ccsc3c(=O)[nH]1)n2CC | i | 0.16 | -0.7%
42 | COC(=O)COc1ccc2occ(C(C)=O)c2c1 | i | 0.72 | -5.3%
43 | CN1/C(=C\C(=O)CN2C(=O)NC3(CCCCCC3)C2=O)C(C)(C)c2ccccc21 | i | -0.31 | -15%
44 | C=CCn1c(=O)c2ccccc2n2c(SCc3nnc(-c4ccccc4Br)o3)nnc12 | i | -1.4 | 2.2%
45 | COc1cc(CNC2CCCC2)cc(OC)c1OC | i | -0.27 | -5.1%
46 | CCCN(CCC)S(=O)(=O)c1ccc(NS(C)(=O)=O)cc1 | i | 1.5 | -2.4%
47 | Cc1nc(-c2ccccc2O)n(-c2ccccc2)n1 | i | / | 5.5%
48 | CCc1nnc(NC(=O)CSc2nnc(Cc3cccn3C)n2C)s1 | i | -0.51 | 0.2%
49 | CC(=O)N(C)c1ccc(NS(=O)(=O)Cc2ccccc2)cc1 | i | -0.94 | -6.3%
50 | O=C(Nc1ccon1)c1cc2ccccc2oc1=O | i | / | -5.7%
51 | Cc1cnc(NC(=O)c2ccc(-c3nc4ccccc4s3)o2)s1 | i | 0.85 | -5.8%
52 | Cc1ccc2[nH]c(=O)c(COC(=O)c3ccccn3)cc2c1 | i | -1.6 | -3.5%
53 | CCOC(=O)c1c(NC(=O)c2cccs2)sc(C)c1C | i | -0.34 | -3.6%
54 | CN1CCc2cc3c(c4c2C1CC41CCC(=NO)CC1)OCO3 (stereo not given) | i | -0.5 | 0.0%
55 | CC1(C)NC(=O)N(CCCSc2ccc(Cl)cc2)C1=O | i | -0.29 | 1.0%
56 | Cc1ccc2c(c1)-c1cc(C)nn1C(c1ccc3c(c1)OCO3)N2 (stereo not given) | i | -0.36 | -3.7%
57 | N#Cc1c(NC(=O)CSc2ncnc3sccc23)oc(-c2ccco2)c1-c1ccco1 | i | -2 | -57%
58 | Cc1ccc(C2N(c3nccs3)C(=O)C3CCCN32)cc1 (stereo not given) | i | 2.6 | 0.8%
59 | CN1C(=S)SC(C)(C)C1NO (stereo not given) | i | 1.1 | 3.3%
60 | C=CCNC(=O)CSc1nnc(-c2cccs2)o1 | i | / | -0.2%

entry | mol | MT1-MMP promoter | WNV NS2B-NS3 inh | Hsc70 ATP site
61 | COc1ccc(-n2ccnc2SCC(=O)Nc2ccc(OC)cc2OC)cc1 | i | 0.03 | -3.0%
62 | Cc1ccc(CN2CCSc3ccc(C(=O)N4CCN(c5ncccn5)CC4)cc32)cc1 | i | -0.16 | 2.7%
63 | COC(=O)C1Cc2c([nH]c3ccccc23)C(C)N1 (stereo not given) | i | -0.47 | -0.1%
64 | C=CCN1CN(S(=O)(=O)c2cccs2)c2nc3ccccc3nc21 | i | -1.3 | 0.0%
65 | CCN(CC)C(=O)CSc1nnc(-c2cnccn2)n1-c1ccc(C)cc1 | i | 0.78 | 1.8%
66 | O=C(O)CCc1ccc(-c2cccs2)n1-c1ccc(C(=O)O)cc1 | i | -0.39 | -2.2%
67 | CN(CC(=O)Nc1cccc2ccccc12)c1ccc(S(=O)(=O)N2CCOCC2)cn1 | i | / | 3.6%
68 | CCOC(=O)CC(=O)CSc1nc(-c2cccnc2)cc(C)c1C#N | i | -2.1 | -3.8%
69 | COc1ccc(C2CC(c3ccccc3C)n3nc(N)nc3N2)cc1 (stereo not given) | i | -0.63 | 5.4%
70 | Cc1cc(NC(=O)c2cnn3c(C(F)F)cc(-c4ccccc4)nc23)no1 | i | 0.27 | -1.0%
71 | O=C(O)c1cc(NCc2c(F)cccc2Cl)ccc1N1CCOCC1 | i | 0.96 | 1.2%
72 | CCC(C)N(C)Cc1cccc(C2(O)CCN(S(=O)(=O)c3ccc(F)c(C)c3)CC2)c1 (stereo not given) | i | / | 0.5%
73 | CCCCNC(=O)CCC(=O)Nc1ccc2nc(N3CCOCC3)cc(C)c2c1 | i | 1.4 | -5.0%
74 | Cc1nc2sc(C(c3ccco3)N3CCC(C)CC3)c(O)n2n1 (stereo not given) | i | 0.49 | 4.5%
75 | O=C(NC1CCCCC1)c1cc(-c2ccco2)on1 | i | 0.13 | -1.4%
76 | Cc1c(C(=O)O)oc2ccc(S(=O)(=O)NCc3ccccc3)cc12 | i | 0.37 | -0.1%
77 | COc1ccc(C(=O)NCCSc2ccccn2)cc1 | i | 0.06 | 1.0%
78 | CCOC(=O)CC1=C(C(=O)OCC)C(c2cc(OC)c(OC)cc2OC)C(C#N)=C(N)O1 (stereo not given) | i | 0.02 | 0.9%
79 | CC(C)NC(=O)COC(=O)c1cc(=O)[nH]c2ccccc12 | i | / | -2.4%
80 | N/C(CCCN1CCCCC1)=N/O | i | 0.35 | -1.0%

entry | mol | MT1-MMP promoter | WNV NS2B-NS3 inh | Hsc70 ATP site
81 | CNS(=O)(=O)c1cccc(C(=O)OCC(=O)N2CCc3ccccc3C2)c1 | i | / | -0.4%
82 | Cc1ccc(C2C(C#N)=C(N)Oc3nc(-c4ccccc4)[nH]c32)o1 (stereo not given) | i | 0.6 | -4.3%
83 | Cc1cc(C)nc(N2CCC(C(=O)NC3CCCc4ccccc43)CC2)n1 (stereo not given) | i | -0.9 | -0.3%
84 | Cc1ccc(S(=O)(=O)c2c(C)nn(C(C)(C)C)c2OC(=O)C(C)(C)C)cc1 | i | -0.88 | 0.3%
85 | CCOC(=O)N1CCN(C(=O)CS(=O)(=O)c2cn(Cc3ccccc3C)c3ccccc23)CC1 | i | / | 2.2%
86 | COc1ccc(S(=O)(=O)/N=C2/NC(=O)/C(=C\c3cc(OC)c(OC)cc3[N+](=O)[O-])S2)cc1 | i | / | 7.8%
87 | CCOC(=O)Cc1nnc(NC(=O)CC)s1 | i | 1.8 | -2.6%
88 | COc1cccc(OC)c1-c1nn2c(-c3ccccc3Cl)nnc2s1 | i | 0.45 | -5.6%
89 | O=C(c1cc2ccccc2oc1=O)N(Cc1ccco1)C1CCS(=O)(=O)C1 (stereo not given) | i | 1 | 1.3%
90 | Cc1cccc(C)c1NC(=O)C1(NC(=O)C2CCCN2C(=O)OC(C)(C)C)CCCCC1 (stereo not given) | i | -1.3 | 1.0%
91 | Cc1ccc(CNC(=O)c2oc3ccc(S(=O)(=O)N4CCOCC4)cc3c2C)cc1 | i | / | 4.5%
92 | C=CCNc1nc(-c2c(C)nc3sccn23)cs1 | i | 0.71 | -4.5%
93 | CCCn1cc(SCC(=O)Nc2nnc(C)s2)c2ccccc21 | i | -0.66 | -1.6%
94 | O=C(/C=C\Nc1ccc2c(c1)OCO2)c1ccccn1 | 0.23µM* | -1.1 | 0.4%
95 | COc1ccc(CCNC(C)=O)cc1 | i | / | 4.6%
96 | CC(C)(CC(=O)O)Cc1nc(-c2ccc(Cl)cc2)no1 | i | -1.6 | -0.5%
97 | COC(=O)C1C(=O)NC(SC)=C(C#N)C1c1ccccc1 (stereo not given) | i | -1.1 | 6.0%
98 | O=C(NCc1ccccc1Cl)C1CCN(C(=O)c2sccc2-n2cccc2)CC1 | i | 0.98 | 6.1%
99 | N#Cc1cc(C(=O)c2cc(Br)ccc2O)cn(C2CC2)c1=O | i | -0.74 | -6.7%
100 | O=C(CCn1cccc1)NC1CCCc2ccccc21 (stereo not given) | i | -0.56 | -1.0%

entry | mol | MT1-MMP promoter | WNV NS2B-NS3 inh | Hsc70 ATP site
101 | COc1cc(CNCC(C)C)cc(Br)c1OCC(=O)Nc1ccccc1 | i | / | 0.7%
102 | COc1ccccc1CC(=O)N1CCCc2ccccc21 | i | / | 1.3%
103 | CCOC(=O)c1c(C)n(C)c2ccc(OC(=O)c3ccoc3)cc12 | i | -0.44 | -2.6%
104 | COc1ccc(S(=O)(=O)N(C)CC(=O)N2CCC(C(N)=O)CC2)cc1 | i | -1.1 | -6.8%
105 | Cn1cccc1Cc1nnc(SCC(=O)Nc2cccc(F)c2)n1CCc1ccccc1 | i | -0.46 | 6.7%
106 | CC1Cc2ccccc2C(=O)N1 (stereo not given) | i | 0.02 | -9.5%
107 | Cc1ccc(S(=O)(=O)NCCCNC(=O)c2ccccc2)cc1 | i | -0.06 | -0.3%
108 | CCOC(=O)C1CSC(CC(=O)Nc2ccc(Cl)cc2)C(=O)N1 (stereo not given) | i | 0.6 | 1.2%
109 | COc1cc(C(N)=O)cc(Br)c1OC | i | -0.11 | 4.7%

Screening results from PubChem.
